# GIV-Gai inh: inhibitors of GIV peptide binding to Galpha-i3, primary screen, biochemical, fluorescence polarization, FITC-GIV GBA peptide, rat Galphai3; 90 min; hits give low values; scaled: aluminum fluoride 0%, vehicle 100%; Guanine nucleotide-binding protein G(i) subunit alpha-3 (Rattus norvegicus), P08753; percent of control (FP), % (test concentration not listed); 210,000 compounds, 0.42% hits; AID 1224905, 2016;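 active = replicate mean at 85% of control or lower, very high polarization wells dropped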;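 note: wells of about 15 µL received 100 nL stock; the first replicate is given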
# Target sequence (P08753 whole entry, looked up): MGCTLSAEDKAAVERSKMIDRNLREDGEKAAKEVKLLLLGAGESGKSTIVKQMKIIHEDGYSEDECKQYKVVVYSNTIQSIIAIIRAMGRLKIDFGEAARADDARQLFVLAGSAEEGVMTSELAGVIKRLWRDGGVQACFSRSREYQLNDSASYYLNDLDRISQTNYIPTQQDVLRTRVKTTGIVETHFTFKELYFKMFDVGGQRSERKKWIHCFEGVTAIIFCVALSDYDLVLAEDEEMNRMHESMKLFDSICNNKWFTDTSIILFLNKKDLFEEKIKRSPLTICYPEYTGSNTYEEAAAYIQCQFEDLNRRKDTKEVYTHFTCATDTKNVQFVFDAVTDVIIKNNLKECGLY
# HCMV NEC inh: inhibitors of HCMV UL50-UL53 interaction, biochemical, HTRF | 190,000 compounds, 0.15% hits | HCMV UL50-UL53 nuclear egress complex (human cytomegalovirus) | normalized percent inhibition | inhibition, % (test concentration not listed);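 active = both replicates at 50% or more, plus weaker picks with an unusually low signal ratio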;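 note: stock transfer was 100 nL into about 20 µL; 0% = negative control wells and 100% = wells with untagged competitor protein; inactives centre near -12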
# Sa growth 42C: S. aureus growth inhibition at 42 and 30 °C, primary screen, LtaS inhibitor project, RN4220, two temperatures. AID 720641, 2013. OD600, 20 h, 42 °C; hits give low values. 170,000 compounds, 0.53% hits. relative growth, % (no concentration beside the values);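 active = growth at 42 °C up to 50% and 20 or more points under that at 30 °C, or under 10% at both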;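 note: 300 nL library stock went into each well; scaled to the means of positive and negative controls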
# Sa growth 42C second temp: recorded beside Sa growth 42C, whose call it bears; relative growth, %; measured here: growth at 30 °C;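 optical density after 20 h as mean of two plates; 100% = untreated growth and lower means inhibition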
# An asterisk follows results filed as active; nt = no result given; & = joins results of further samples.
SMILES,GIV-Gai inh,HCMV NEC inh,Sa growth 42C,Sa growth 42C second temp
O=C(NCc1ccccc1Cl)c1ccc2c(c1)ncn2-c1cccc(F)c1,101.6,nt,93.8,77.8
COc1ccc(NC(=O)CC2CCCC2)c(S(=O)(=O)N2CCCCC2)c1,nt,-12.6,114.3,84.1
O=C(Cn1nc(N2CCN(c3ccccc3)CC2)ccc1=O)NCCC1=CCCCC1,120.0,-27.4,nt,nt
COc1ccc(NC(=O)CNc2ccc(NC(C)=O)cc2)c(OC)c1,nt,-11.2,103.3,98.0
O=c1[nH]c2cc(C(F)(F)F)ccc2n(CCNc2ncc(C(F)(F)F)cc2Cl)c1=O,105.5,5.3,nt,nt
O=C(CN1C(=O)c2ccccc2C1=O)NC1=NCCS1,100.0,nt,122.9,79.7
Cc1[nH]n(-c2cccc(Cl)c2)c(=O)c1C1CC(=O)N(c2ccccc2)C1=O (stereo not drawn),nt,-3.4,98.7,88.2
COc1ccc(-c2nnc3c4cnn(Cc5ccccc5)c4ncn23)cc1OC,93.0,-14.3,nt,nt
CC(=O)Nc1ccc2c(CSc3nnc(-c4cccs4)n3CC3CCCO3)cc(=O)oc2c1 (stereo not drawn),nt,-79.1,76.8,89.6
COc1cnn(-c2ccccc2)c(=O)c1OC,100.5,-3.8,103.9,108.4
CCCCC(=O)c1ccc(O)cc1,104.4,nt,125.6,89.8
COc1cc(C2C3=C(CC(C)(C)CC3=O)Nc3onc(C)c32)ccc1O (stereo not drawn),106.2,-25.6,nt,nt
CC(C)CCOc1ccc(C(=O)C(CN2CCOCC2)c2ccccc2)cc1 (stereo not drawn),107.0,nt,74.7,85.1
CN(C)c1ccc(/C=C2\CCC(=C3SCCCS3)C2=O)cc1,nt,-18.6,91.3,88.3
COc1ccc(-c2oc3ncn(Cc4ccco4)c(=N)c3c2-c2ccc(OC)cc2)cc1,102.2,-13.4,93.2,57.3
CNS(=O)(=O)c1cc(-c2ccno2)oc1C,110.9,-36.4,nt,nt
CC1CCN(S(=O)(=O)c2ccc3c(ccc(=O)n3CC(=O)NCc3ccc(Cl)cc3)c2)CC1,98.8,nt,107.7,85.6
CCOc1ccc2oc(=O)cc(CN3CCOCC3)c2c1,103.1,-22.2,91.9,84.4
Cc1ccc(C(=O)Nc2ccc3c(c2)N(C)C(=O)c2ccccc2S3)cc1F,99.0,nt,107.5,95.1
CN1C(=O)N(C)C(=O)C(CCc2ccncc2)(C2(C#N)CCCCC2)C1=O,nt,-20.3,96.3,89.3
CCC(=O)N=c1sc2cc(Br)ccc2n1CCOC,107.1,-1.2,108.2,88.0
Cc1ccc(CCNC(=O)c2ccc(CSc3nc4ccncc4n3Cc3ccc(F)cc3)cc2)cc1,104.9,5.0,96.8,98.2
O=C(Cn1nc2c(cc1=O)CCCC2)NCc1ccccc1Cl,110.0,nt,115.5,100.5
O=C(OCC(=O)N1CCc2ccccc21)C1CC2C=CC1C2 (stereo not drawn),nt,-12.3,100.2,90.7
O=C(c1cc(C2CC2)on1)N1CCCCC1,102.9,-22.4,nt,nt
O=C(O)C12CC3CC(C1)CC(n1ncc(NCc4ccc(F)cc4)c(Cl)c1=O)(C3)C2,99.0,nt,90.6,84.5
O=c1[nH]c(=O)n(C2C[C@@H](O)[C@@H](CO)O2)cc1F (stereo partly drawn),nt,-44.2,-0.7*,-0.3*
O=C(Nc1ccccc1N1CCOCC1)C1CCN(c2nccc(C(F)(F)F)n2)CC1,102.0,-13.6,100.1,90.0
COc1ccccc1NC(=O)CCc1c(C)[nH]c(=O)c(C#N)c1C,97.3,-26.1,95.2,84.5
CC1(C(=O)NC2CCCCC2)Cn2c(cc3ccccc32)C(=O)N1Cc1ccc(Cl)cc1 (stereo not drawn),103.6,-8.9,nt,nt

# Another view of part of the listing above:
> CCC(=O)N=c1sc2cc(Br)ccc2n1CCOC
- GIV-Gai inh: 107.1
- HCMV NEC inh: -1.2
- Sa growth 42C: 108.2
- Sa growth 42C second temp: 88.0
> Cc1ccc(CCNC(=O)c2ccc(CSc3nc4ccncc4n3Cc3ccc(F)cc3)cc2)cc1
- GIV-Gai inh: 104.9
- HCMV NEC inh: 5.0
- Sa growth 42C: 96.8
- Sa growth 42C second temp: 98.2

# (continued)
SMILES,GIV-Gai inh,HCMV NEC inh,Sa growth 42C,Sa growth 42C second temp
CSc1nnc2c(n1)OC(c1cccc(O)c1Cl)Nc1ccccc1-2 (stereo not drawn),107.0,-36.1,104.0,90.2
COc1ccc(CN2CCN(C(=O)c3c(C)nn(Cc4ccccc4)c3C)CC2)cc1F,nt,-23.6,75.5,82.6
Cn1c(P(C)(=O)O)nc2ccccc21,nt,8.6,112.8,89.8
CN1CCN(c2ccc(-c3nc(-c4ccc(F)cc4)no3)nn2)CC1,106.1,-5.3,nt,nt
CCOC(=O)COc1ccccc1C(=O)O,103.1,-7.8,112.7,105.3
O=C(O)C1CCCN(C(=O)c2ccc(F)cc2)C1 (stereo not drawn),nt,-14.8,87.1,89.8
CCOC(=O)C1CCC(CN(Cc2ccc(OC)cc2)S(=O)(=O)c2ccc(F)c(C(=O)Nc3cc(Cl)ccc3OC)c2)CC1 (stereo not drawn),101.4,nt,117.5,92.0
CN(C)c1cc(N2CCNCC2)nc(N(C)C)c1C#N,97.3,-6.0,107.3,89.5
CCOC(=O)COc1cccc(Cl)c1,107.7,-16.6,97.3,109.8
CCC(SC1=Nc2ccccc2C2=NC(C)C(=O)N12)C(=O)Nc1ccc(OC)cc1OC (stereo not drawn),109.5,-10.0,nt,nt
O=C(COC(=O)c1ccc2ccccc2n1)c1ccc2[nH]c(=O)[nH]c2c1,nt,-20.5,79.8,80.8
Cc1ccc(NC(=O)Nc2nnc(SCC(=O)N3CCCCC3)s2)cc1,96.4&102.0,nt,84.0,90.3
O=C(O)CCc1ccc(-c2ccccc2F)o1,nt,-21.5,109.0,88.7
Cc1cc(C)nc(NNC(=O)c2ccccc2)n1,107.1,8.9,106.7,114.8
O=C(CC(c1ccccc1)c1ccccc1)NCc1nc(-c2ccccc2)no1,103.7,nt,116.3,89.2

# Full records as entered above:
# `O=C(Cn1nc(N2CCN(c3ccccc3)CC2)ccc1=O)NCCC1=CCCCC1` is listed with GIV-Gai inh: 120.0; HCMV NEC inh: -27.4; Sa growth 42C: nt; Sa growth 42C second temp: nt
# `O=c1[nH]c(=O)n(C2C[C@@H](O)[C@@H](CO)O2)cc1F` (stereo partly drawn) is listed with GIV-Gai inh: nt; HCMV NEC inh: -44.2; Sa growth 42C: -0.7*; Sa growth 42C second temp: -0.3*

# Single entries from the entries so far.
# Value of Cc1ccc(NC(=O)Nc2nnc(SCC(=O)N3CCCCC3)s2)cc1 in Sa growth 42C: 84.0
# Value of COc1cc(C2C3=C(CC(C)(C)CC3=O)Nc3onc(C)c32)ccc1O (stereo not drawn) in GIV-Gai inh: 106.2
# Value of CCCCC(=O)c1ccc(O)cc1 in Sa growth 42C second temp: 89.8

# Additional compounds follow:
SMILES,GIV-Gai inh,HCMV NEC inh,Sa growth 42C,Sa growth 42C second temp
COc1ccc(CNC(=O)c2cc3c(-c4ccccc4F)nn(C)c3s2)c(OC)c1,108.0,6.4,95.8,83.0
COc1ccc(NC(=O)CCN2CCN(C3c4ccccc4-c4ccccc43)CC2)cc1,104.9,-34.5,103.6,93.9
CC1CC(C)CN(C(=O)CSc2nncn2-c2cccc(Cl)c2)C1 (stereo not drawn),nt,-16.2,86.5,92.3
CN(C)c1ccc(/C=C2/SC(=S)N(CC(=O)O)C2=O)cc1,-60.8*,-19.5,nt,nt
CCCCN(CCCC)C(=O)C1CCCN1S(=O)(=O)c1cccc2nsnc12 (stereo not drawn),105.5,-104.1,nt,nt
O=C(NCC1COc2ccccc2O1)C1COc2ccccc2O1 (stereo not drawn),103.9,-5.0,80.9,88.1
O=C(O)CCc1c(-c2ccccc2)cc2ccccn12,nt,-34.1,105.0,84.2
O=C(O)c1cccc(Nc2nc(Nc3ccccc3)nc(N3CCCC3)n2)c1,97.5,nt,99.1,75.7
CN1CCN(/N=C/c2ccc(Cl)cc2)CC1,100.0,-2.1,89.7,114.4
O=C1CSC(=Nc2cccc(C(F)(F)F)c2)N1,109.1,-0.6&-3.1&2.6,108.4,98.6
Cc1ccccc1-c1nc2scc(CCNC(=O)c3cccc(Br)c3)n2n1,97.8,-20.6,nt,nt
Cc1c(Cl)cccc1NCc1nc2ccccc2s1,nt,8.8,95.4,85.2
Cc1cc(C)n(C2=NCCN2)n1,104.4,1.9,93.3,92.0
CCOC(=O)Cc1ccc(NC(=O)Nc2nc(-c3ccccc3)cs2)cc1,100.7,-29.8,nt,nt
Cc1ccc(N(C)NC=C(C#N)C#N)nn1,111.3,-60.1,95.2,82.7

# GIV-Gai inh: hit marks shown above.
SMILES,GIV-Gai inh,Sa growth 42C second temp
CN(C)c1ccc(/C=C2/SC(=S)N(CC(=O)O)C2=O)cc1,-60.8*,nt

# (more compounds)
SMILES,GIV-Gai inh,HCMV NEC inh,Sa growth 42C,Sa growth 42C second temp
CCn1c(C(=O)N2CCC(C(=O)O)CC2)cc2sccc21,100.0,nt,110.4,88.8
O=C1NC(C(=O)O)=CC(c2ccccc2)N1 (stereo not drawn),100.4,-8.3,101.1,85.4
Brc1ccc(CSc2nccn2-c2cccnc2)cc1,97.6,-10.1,97.7,79.9
Cc1ccc(C)c(N2CCN(C(=O)Nc3c[nH]c4c(C)cccc4c3=O)CC2)c1,98.1,-8.9,nt,nt
O=C(N/N=C/c1ccc(N2CCOCC2)cc1)c1ccc(O)cc1,nt,-44.2,87.6,96.1
O=C(OCCN1CCCC1=O)c1cccs1,nt,-32.2,114.7,77.4
CC(C)C(NC(=O)c1ccccc1Cl)C(=O)NC1CCCCCC1 (stereo not drawn),nt,-41.4,109.3,83.7
O=C(Cn1nc(N2CCN(c3ccc(F)cc3)CC2)ccc1=O)NC1CCCCC1,112.0,-14.6,nt,nt
COc1ccc(CN(C)C(=O)c2ccccc2OC)cc1,99.2,-24.5,99.7,98.7
Cc1cc(Br)ccc1NC(=O)Cn1cnc2c(nc3n2CCCCC3)c1=O,109.5,1.4,nt,nt
O=C(NCc1csc2ccccc12)c1ccco1,105.6,-4.3,86.0,85.7
CC(C)(C)c1ccc(NC(=O)C2CCCN(c3cnccn3)C2)cc1 (stereo not drawn),100.7,7.1,103.3,76.2
CSc1ncn(-c2nc(NC(C)C)nc(NC(C)C)n2)n1,96.3,-7.8,nt,nt
CC(C)CCOc1ccc(Cn2c(=O)sc3ccccc32)cc1,101.2,-9.9,87.3,93.1
CC(C(=O)C(C#N)c1nc2ccccc2n1C)N1C(=O)c2ccccc2C1=O (stereo not drawn),nt,-21.0,94.7,91.0
COC(=O)[C@@H]1CCN[C@@H]1c1c(Cl)cccc1Cl,103.0,nt,91.7,97.4
CC(CCc1ccccc1)NC(=O)c1ccco1 (stereo not drawn),105.5,-7.7,99.8,67.8
CCc1nc2sc3c(NCCc4ccccc4)ncnc3c2c2c1CCCC2,105.0,nt,122.0,87.3
CCOc1ccc2cc(-c3csc(N)n3)c(=O)oc2c1,nt,-28.0,103.3,92.6
CC(C)(C)c1ccc(-c2cc(=O)[nH]c(=O)o2)cc1,106.6,2.8,96.4,99.6
COc1cccc(Nc2sc(C(=O)c3ccc(Cl)cc3)c(N)c2C(=O)NCc2ccc(C)cc2)c1,105.9,nt,111.1,92.3
Cc1nc(-c2ccccc2)sc1-c1ccc(SCC(=O)NCc2ccc(F)cc2)nn1,105.6,nt,99.6,85.9
CC1c2nc3ccccc3n2C(CC(=O)NCc2ccc(Cl)cc2)C(=O)N1Cc1ccccc1 (stereo not drawn),106.5,nt,95.5,72.5
Cc1ccc(C2=CC(c3ccc(Cl)cc3)n3nc(-c4ccc(C)cc4)nc3N2)cc1 (stereo not drawn),101.3,12.5,94.0,86.4
O=C(Cn1ccn2nc(-c3ccc4c(c3)OCO4)cc2c1=O)Nc1ccc2c(c1)OCO2,102.0,-20.0,nt,nt
COc1ccc(OC)c(NC(=O)N2CCC(n3cnc4ccccc4c3=O)CC2)c1,102.6,-29.9,nt,nt
CC(C)(C)NC(=O)Cc1csc2nc(-c3ccccc3)cn12,102.2,-25.4,99.7,83.8
CCOC(=O)C1CCCN(C(=O)Cn2ncn3c(cc4sc(CC)cc43)c2=O)C1 (stereo not drawn),104.2,-26.4,96.5,78.2
Cc1cccc(NC(=O)c2ccc3ccccc3c2)c1C,102.9,nt,116.3,93.0
O=c1[nH]c(=S)[nH]c2scc(-c3ccc(Br)cc3)c12,101.5,-15.2,nt,nt
CC1(C)NN(CCO)C(=Nc2ccccc2)S1,nt,8.2,104.1,104.0
Cc1cc2n(n1)CCC(=O)N2C(C)C(=O)Nc1ccc(Cl)cc1 (stereo not drawn),104.7,-4.7,nt,nt
COc1cc(/C=C\C(=O)NCCc2cc3ccc(C)cc3[nH]c2=O)cc(OC)c1OC,104.2,nt,101.4,91.6
CCOC(=O)N1CCN(C(=O)c2ccc(-n3c(=S)[nH]c4ccccc4c3=O)cc2)CC1,110.7,nt,106.1,83.5
COC(=O)CN1C(=O)CSc2ccc(S(=O)(=O)Nc3cc(C)ccc3C)cc21,98.5,nt,112.1,94.0
O=C(NCc1ccco1)c1ccc2c(=O)n(C3CCCCC3)c(SCc3cc(F)ccc3F)nc2c1,100.4,-24.5,96.7,82.7
Cc1ccc2c(=O)cc(-c3cccc(F)c3)oc2c1,112.5,-6.5,69.4,118.4
CCN1CCN(c2nc(-c3ccc(C(C)(C)C)cc3)nc3ccccc23)CC1,104.5,nt,78.7,31.9

# Screening results: PubChem BioAssay, ICCB-Longwood Screening Facility, Harvard Medical School
